TRPV1 potentiator: HTS Assay for Compounds that Act as Potentiators of the Vanilloid Receptor 1. TRPV1-expressing cells, Fluo-8 calcium influx, capsaicin EC20 potentiation; host cell line not named in the record; control for the full effect not named in the record. potentiation, % at 8.33 µM. actives 0.02% (n = 320,000). AID 540277, 2011; active means potentiation above 80%; inconclusive means 30% to 80%; inactive means below 30%; further: 0% is about no effect
Target sequence (Q8NER1 whole entry, looked up): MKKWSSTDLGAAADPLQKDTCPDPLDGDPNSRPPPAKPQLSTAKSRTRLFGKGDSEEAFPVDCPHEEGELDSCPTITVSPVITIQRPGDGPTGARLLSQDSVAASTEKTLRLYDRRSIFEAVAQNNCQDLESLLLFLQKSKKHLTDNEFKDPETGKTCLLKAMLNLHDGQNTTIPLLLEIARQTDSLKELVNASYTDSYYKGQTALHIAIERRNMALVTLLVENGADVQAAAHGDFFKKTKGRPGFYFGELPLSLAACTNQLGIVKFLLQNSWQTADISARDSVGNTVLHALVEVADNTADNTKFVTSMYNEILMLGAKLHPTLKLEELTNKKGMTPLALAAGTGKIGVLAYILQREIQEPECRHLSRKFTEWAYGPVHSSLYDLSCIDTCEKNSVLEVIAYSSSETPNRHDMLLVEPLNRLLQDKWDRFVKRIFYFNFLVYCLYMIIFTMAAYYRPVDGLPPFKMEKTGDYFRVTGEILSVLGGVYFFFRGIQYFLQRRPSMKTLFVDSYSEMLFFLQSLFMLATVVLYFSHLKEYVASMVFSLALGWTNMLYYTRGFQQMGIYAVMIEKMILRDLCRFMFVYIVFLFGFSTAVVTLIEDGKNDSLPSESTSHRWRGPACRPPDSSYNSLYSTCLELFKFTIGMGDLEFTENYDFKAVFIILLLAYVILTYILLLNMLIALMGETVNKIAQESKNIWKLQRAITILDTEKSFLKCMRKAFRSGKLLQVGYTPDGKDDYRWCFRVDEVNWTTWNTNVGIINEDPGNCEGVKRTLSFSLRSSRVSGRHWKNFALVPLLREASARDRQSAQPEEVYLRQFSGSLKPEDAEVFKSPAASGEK
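TRPV1-expressing cells were cultured overnight at 35.5C and loaded with Fluo-8 calcium dye for 40 to 90 min at room temperature. After a 10 s baseline, compound was added and calcium influx was read kinetically for 3 min (ex 480/em 520 nm).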
gsp agonist: qHTS for Agonist of gsp, the Etiologic Mutation Responsible for Fibrous Dysplasia/McCune-Albright Syndrome: qHTS; AID 624287, 2012; gsp mutant cells, cAMP HTRF, 30 min; control for the full effect not named in the record; actives 0.13% (n = 340,000); Potency, µM (top dose mostly 76.9 µM), for the others: top-dose activation (cAMP increase), actives largely listed as activators; active = well fitted activation curve with a large enough effect; inconclusive = small, poorly fitted or top-dose-only effect, or another doubt; inactive = no such curve, though single readings can be large or run the other way; cell line not stated here;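 further: phosphodiesterase inhibitor Ro 20-1724 added with compounds to block cAMP breakdown; potency means the concentration at half of the fitted maximal effect; nearly all actives have a fitted effect of over 60% in size; about a fifth of the inactives were tested at one dose only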
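Cells stably selected in G418 were plated at 2000/well, grown 16-24 hr, then given compounds in DMSO with the PDE inhibitor […] (300 uM solution added) for 30 min at 37C; cAMP was read by HTRF.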
Menin-MLL FL inh: qHTS Assay for Inhibitors Targeting the Menin-MLL Interaction in MLL Related Leukemias: Competition With Fluorescein Labeled MLL-derived Peptide. 290,000 tested, under 10 active. AID 1766, 2009. FP activity change, % at 61.4 µM. Fluorescence polarization, fluorescein-MLL peptide displacement from menin; inconclusive = falling polarisation curve, or a change in total fluorescence; inactive = total fluorescence flat and polarisation flat or rising; no compound was filed as active; the % refers to the polarisation; negative = inhibition;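 further: % of control where 0% means no effect; inhibitors lower the polarisation; unlabelled MLL peptide was the positive control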
ClpP mod: qHTS Assay for Activators of ClpP; ATP-dependent Clp protease proteolytic subunit (Bacillus subtilis (strain 168)), P80244; purified B. subtilis ClpP, FRET peptide cleavage, 20 min; Potency, µM (highest dose often 57.5 µM), for inactives: at the highest dose activity change, negative = active; actives 1.9% (n = 340,000); active = well fitted falling curve with a large enough effect; inconclusive = small, poorly fitted or top-dose-only effect; inactive = no such curve, though single readings can be large or run the other way; further: potency means the concentration at half of the fitted maximal effect; the source files actives as falling curves though it sought activators and does not explain the sign; nearly all actives have a fitted effect of over 65% in size; many hits overshoot -100%
Target sequence (P80244 whole entry, looked up): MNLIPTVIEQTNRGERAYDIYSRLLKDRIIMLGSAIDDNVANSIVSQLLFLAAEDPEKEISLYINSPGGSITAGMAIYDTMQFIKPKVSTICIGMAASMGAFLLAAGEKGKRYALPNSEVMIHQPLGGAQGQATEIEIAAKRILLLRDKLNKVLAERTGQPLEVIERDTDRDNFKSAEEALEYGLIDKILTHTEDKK
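ClpP 10 microg/mL final, pH 8 Tris/KCl buffer with BSA, glycerol, Tween-20; compound pinned in; FRET-FV substrate; RT 20 min; Ex320/Em430; ΔFRET vs ADEP 5.8 microM, DMSO, no enzyme.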
CtBP-E1A blk: qHTS Assay for Inhibitors of the CtBP/E1A Interaction; actives 0.49% (n = 340,000); AlphaScreen GST-E1A/His-CtBP binding, 1536-well; hits give low values; control for the full effect not named in the record; activity change, % (test concentration not listed); CtBP / adenovirus E1A interaction (AlphaScreen); in the data active means activity change below about -65%; inconclusive means about -30% to -65%; inactive means above about -30%; further: on the % scale 0 is the no-effect control and ±100 the full control effect; compound concentration not given in the record
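GST-E1A and His-tagged CtBP (125 nM each as 5X stock) were preincubated with pin-transferred compound for 2 h at 37 °C in the dark, then glutathione donor and nickel acceptor beads were added for 1 h before AlphaScreen reading.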
Sfp PPTase inh: qHTS Assay for Inhibitors of Bacillus subtilis Sfp phosphopantetheinyl transferase (PPTase). Biochemical Sfp PPTase activity, qHTS. Potency, µM, inactives show max response, negative = inhibition, actives largely listed as inhibitors. actives 3.5% (n = 310,000); active means well fitted inhibition curve with a large enough effect; inconclusive means small, poorly fitted or top-dose-only effect, or another doubt; inactive means no such curve, though single readings can be large or run the other way;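 further: the enzyme is Sfp with the accession as filed and its product quenches rhodamine fluorescence; potency means the concentration at half of the fitted maximal effect; 0% = enzyme reaction without inhibitor and -100% = no enzyme wells; top concentration of the series not given in the record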
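Buffer: 50 mM Hepes-Na pH 7.6, 10 mM MgCl2, 0.01% Nonidet P-40, 0.01% BSA. Enzyme 15 nM, pre-exposed to compound 15 min; substrates then added and fluorescence change tracked over 30 min.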
gsp antag: qHTS for Antagonists of gsp, the Etiologic Mutation Responsible for Fibrous Dysplasia/McCune-Albright Syndrome: qHTS; gsp-mutant cells, cAMP HTRF, 30 min; control for the full effect not named in the record; Potency, µM (doses to about 76.9 µM), without a hit: at the top dose activity change, negative = inhibition, most hits filed as inhibitors; actives 0.4% (n = 340,000); active = falling curve of any shape with a large fitted effect; inconclusive = falling curve, mostly with a smaller effect; inactive = flat or rising curve; cell line not stated here;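 further: intracellular cAMP measured with PDE inhibitor Ro 20-1724 present during compound exposure; potency means the concentration at half of the fitted maximal effect; on the % scale 0 is the no-effect control and ±100 the full control effect; nearly all actives have a fitted effect of over 65% in size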
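Cells in G418 medium, seeded 16-24 h, 37C; buffer exchange to DPBS + 1 mM CaCl2, 0.5 mM MgCl2, 0.05% BSA; cpds in DMSO + […] (300 uM stock), 30 min 37C; HTRF cAMP detection.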
* = called active by the depositor; ? = inconclusive; . = no result given; [ ] = another dose, or the depositor's remark. Hits appear at their usual frequency (roughly 5.3% active in at least one column).

SMILES | TRPV1 potentiator | gsp agonist | Menin-MLL FL inh | ClpP mod | CtBP-E1A blk | Sfp PPTase inh | gsp antag
CCN(CC)S(=O)(=O)c1cc(NC(=O)C2CC(=O)N(Cc3ccccc3)C2)ccc1Cl (configuration not stated) | -4 | -17% | . | 0.0% | . | . | ?
C=CC(=O)Nc1cccc(Oc2ccnc(Nc3ccc(N4CCN(C)CC4)cc3)n2)c1 | . | . | . | -2.2% | -11 | . | -25%
CCN=C1SC(C(=O)Nc2cccc(C(=O)O)c2)CC(=O)N1CC (configuration not stated) | 15 | -33%[inhibitor] | -1.0 | 1.7% | 3 | -23% | 19%
Cc1cc(N2CCCC2)ccc1NC(=O)CN1C(=O)NC2(CCCCC2)C1=O | -1 | -1%[15.4 µM] | . | -1.6% | -4 | . | -16%
COc1ccccc1NS(=O)(=O)NC(=O)c1cn(C)c2ccccc12 | 5 | ? | . | 0.9% | 12 | 5% | 1%
Cn1c(=O)c2c(nc(Oc3ccccn3)n2C)n(C)c1=O | -4 | . | -1.2 | . | . | 2% | .
CC(=O)C1=C(NC(=O)c2ccccc2F)C[C@@H]2[C@H]1C2(C)C | -4 | 10% | 2.0 | -2.0% | 1 | -5% | -5%
O=S(=O)(c1cccc(C(F)(F)F)c1)N1CCC(CO)(CCCc2ccccc2)CC1 | -4 | 0% | 3.3 | 2.2% | 3 | 17% | -2%
COc1ccc(-c2cc(C)no2)cc1S(=O)(=O)N1CCCCC1 | -15 | -11% | -3.6 | -0.1% | . | 9% | -2%
C=C(C)CNC(=O)c1ccc2nc(Cc3ccc(OC)cc3)oc2c1 | -1 | -21%[15.4 µM] | -1.3 | 1.4% | 10 | -1% | -9%
CC(=O)c1cccc(NC(=O)CSc2nc(N3CCCCC3)nc(N3CCCCC3)n2)c1 | 6 | 7% | 3.6 | . | -6 | 13% | 7%
CCC(C)NC(=O)CCS(=O)(=O)c1ccc2c(c1)n(C)c(=O)c(=O)n2C (configuration not stated) | -25 | 24% | -8.4 | -25% | 2 | ? | 5%
N=C1N(c2ccccc2)C(=S)C(=Nc2ccccc2)N1c1ccccc1 | . | -8% | . | -1.1% | 1 | . | -8%
Cc1cc(Cl)ccc1NS(=O)(=O)c1c(C)[nH]c(=O)[nH]c1=O | -8 | ? | -0.3 | -0.6% | 7 | 2% | 12%
CCOc1ccc(S(=O)(=O)N(C)CC(=O)NCc2ccccn2)cc1Cl | -2 | 16%[15.4 µM] | -5.3 | 11% | 22 | 1% | -18%
CC(O)[C@H]1CN=C(N)N1CCc1cc(C(F)(F)F)cc(C(F)(F)F)c1 (some centres not stated) | 2 | ? | 4.0 | -0.2% | . | 17% | -6%
Cc1ccc(Nc2ccccc2)nn1 | -7 | 5%[15.4 µM] | 3.5 | 0.2% | 10 | 0% | 2%
CSCCC(NS(=O)(=O)c1ccc2c(c1)OCCO2)C(=O)N(C)Cc1ccccc1F (configuration not stated) | -5 | -1% | . | 0.8% | . | . | -19%
COc1cc(C=C2C(=O)c3ccccc3C2=O)cc(OC)c1 | 8 | 16% | 5.0 | 2.2% | 2 | -2% | -1%
CN(C)c1nnnn1-c1ccc(Cl)cc1 | -3 | 6%[15.4 µM] | -0.5 | . | -8 | -11% | 15%
CN(C)c1ccc(CSc2ccccc2)cc1 | . | -6%[15.4 µM] | . | 13µM* | ? | . | -3%
Cc1n[nH]c(C)c1N=Nc1ccc(Br)cc1 | 6 | -5% | -0.3 | 2.0% | -15 | -4% | 13%
CCOc1ccc(C(C)=O)cc1CSc1nnc(-c2ccncc2)n1CCOC | 9 | -25% | 2.9 | . | 4 | -11% | -7%
COc1ccc(-n2nc3c(c2NC(=O)Cc2cccc(C)c2)CS(=O)C3)cc1 (configuration not stated) | 4 | -32%[inhibitor] | -5.5 | 1.1% | 5 | 3% | 7%
Cc1ccccc1NC(=S)Nc1ccc(Br)cc1 | -23 | 18% | 2.3 | -2.2% | -7 | -18% | 12%
CC1CCCC(NC(=O)COC(=O)CCC(=O)c2cccs2)C1C (configuration not stated) | . | -1%[15.4 µM] | . | 0.4% | 4 | . | 4%
COc1cc(OC)cc(C(=O)NC(C(=O)NNC(=O)c2cc(Cl)ccc2OC)C(C)C)c1 (configuration not stated) | 14 | -17% | . | -12% | . | . | -3%
CCC1(c2ccccc2)NC(=O)N(CC(=O)Nc2ccc(S(=O)(=O)Nc3ncccn3)cc2)C1=O (configuration not stated) | 9 | -6% | . | -1.2% | 0 | . | 7%
O=C(C1=C(O)C(=O)N(c2ncccn2)C1c1cccs1)c1ccco1 (configuration not stated) | 18 | 28% | ? | -2.0% | -9 | ? | 11%
Cc1ccc(NC(=O)NN2CCOCC2)cc1 | 2 | -7% | -1.0 | -0.8% | . | 7% | 11%
CN(C)S(=O)(=O)c1ccc(C(=O)OCC(=O)Nc2cccnc2Cl)cc1 | -10 | 11%[15.4 µM] | -0.9 | 0.9% | -16 | -11% | -1%
COc1ccc(-n2c(COc3cccc4ccccc34)nnc2SCC#N)cc1 | 27 | 4% | -0.5 | 0.1% | -1 | 3% | -10%
O=C(O)c1ccccc1NC(=O)N1CCOCC1 | 11 | -16%[15.4 µM] | 0.8 | . | 1 | -27% | 0%
COc1ccc(OC)c(N(CC(=O)N2CCN(Cc3ccccc3)CC2)S(C)(=O)=O)c1 | 10 | -51%[inhibitor] | -1.5 | -0.2% | . | 32%[activator] | 1%
O=C(/C=C\N1CCOCC1)c1ccc(Br)cc1 | 13 | -2%[15.4 µM] | 3.2 | 1.5% | 2 | 30%[activator] | -3%
Cc1ccc(-c2cnn(-c3cccc([N+](=O)[O-])c3)c2N)cc1 | . | 7% | -1.3 | -0.5% | -4 | -11% | -4%
O=C1C(Cl)=C(Nc2ccc(F)cc2)C(=O)N1CCc1ccccc1 | -15 | 6%[15.4 µM] | 16 | . | 1 | -11% | 5%
CCOc1ccc(OCCOC(=O)CN(C)S(=O)(=O)c2ccc(NC(C)=O)cc2)cc1 | 1 | ? | . | -2.6% | 0 | . | -12%
O=C(CSc1ccccc1)NNC(=O)c1ccncc1 | 5 | -11%[15.4 µM] | . | . | -21 | . | 12%
Cc1ccc(/C(O)=C2/C(=O)C(=O)OC2c2ccc(Cl)cc2)cc1 (configuration not stated) | -6 | ? | 0.2 | -1.3% | 2 | 2% | 2%
N#CCOc1ccc2oc(-c3ccco3)cc(=O)c2c1 | -38 | . | 2.6 | . | . | 13% | .
Cc1cc(C)n(CC(=O)N2CCCC(N3CCN(c4ccccc4C)CC3)C2)n1 (configuration not stated) | 1 | 11% | -1.7 | -2.0% | 0 | -5% | -1%
O=C(NCCO)C(=O)Nc1cc2c3c(c1)CC(=O)N3CCC2 | 11 | -16% | 1.0 | -5.0% | . | 11% | 8%
O=C1N(Cc2ccccc2)c2ccccc2C12OCCO2 | -2 | -2%[15.4 µM] | -3.1 | -0.7% | 7 | 16% | -8%
COC(=O)C1=C(SC)N(c2ccccc2)C(c2ccccc2)CC1=O (configuration not stated) | 25 | 4%[15.4 µM] | 2.0 | -4.0% | -1 | 2% | 7%
CC1CCCN(Cc2c(O)ccc3c4c(c(=O)oc23)CCCC4)C1 (configuration not stated) | 2 | 26% | -0.9 | 3.4% | 1 | 20% | 6%
Brc1cccc(/C=N/Nc2nc(N3CCCCC3)nc(N3CCCCC3)n2)c1 | 12 | . | -2.0 | . | . | 15% | .
Cc1cc(=O)[nH]c(-c2cccnc2)n1 | ? | -3%[15.4 µM] | 9.7 | . | . | 2% | 8%
CC1CC1C(=O)OCC(=O)Nc1ccc(S(=O)(=O)N2CCOCC2)cc1 (configuration not stated) | . | 6% | . | 0.8% | 4 | . | 13%
COc1ccc(CNC(=O)Cn2nc(-c3ccc4c(c3)OCCO4)ccc2=O)cc1 | -3 | -3% | 2.5 | -26% | -11 | -17% | 0%
O=C(C1=C[C@H](c2ccccc2)C[C@H](OCc2ccc(CO)cc2)O1)N1CCN(Cc2ccccc2)CC1 | -15 | . | 3.2 | 0.2% | -9 | 7% | ?
CC(=O)c1ccc(NC(=O)c2ccccc2Sc2ncnc3sc(C)c(C)c23)cc1 | 8 | ? | 9.9 | . | -6 | -3% | -13%
COc1ccc(C(=O)NC(=S)Nc2cccnc2)cc1[N+](=O)[O-] | 9 | 5% | -17 | -1.4% | 10 | -2% | 3%
CC(C)C(C(=O)NCC1CCCO1)N(C(=O)CNS(=O)(=O)c1ccc(F)cc1)c1ccccc1 (configuration not stated) | 5 | -7%[15.4 µM] | . | . | 6 | 8% | -22%
COc1ccccc1Nc1nc(C)cc(=O)[nH]1 | 7 | ? | -0.9 | -0.2% | 6 | 2% | 0%
CCN(CC)CCn1c(NCc2ccccn2)nc2ccccc21 | -4 | -15% | 1.3 | 0.9% | 5 | ? | -10%
O=C(c1ccc(Cl)c([N+](=O)[O-])c1)N(Cc1cccc(Cl)c1)C1CCS(=O)(=O)C1 (configuration not stated) | -5 | -5%[15.4 µM] | 4.7 | -0.6% | 8 | -11% | 3%
CC(=O)Nc1ccc(N2C(=O)CSC2c2c(F)cccc2Cl)cc1 (configuration not stated) | -8 | 25% | 1.3 | 1.5% | 9 | 14% | 2%
O=C(NCCCN1CCOCC1)c1cccc(S(=O)(=O)N2CCOCC2)c1 | 8 | 17% | . | -1.1% | 12 | . | 17%
CCC(=O)Nc1ccc(-c2nnc(SCC(=O)Nc3nccs3)n2C)cc1 | -16 | 1% | 0.5 | -2.2% | -4 | 8% | 5%
CC(=O)c1cccc(NC(=O)CCn2c(=O)oc3ccccc32)c1 | -3 | 3%[15.4 µM] | 0.2 | . | -2 | 13% | -4%
